# Compound activity as filed in PubChem BioAssay.
# AmpC nodet inh: inhibitors of E. coli AmpC beta-lactamase without detergent; P00811; AmpC nitrocefin hydrolysis, absorbance 480 nm, no detergent; potencies from a single point are estimates; Potency, µM (doses to about 28.7 µM), for inactives: at the highest dose activity change, negative = inhibition; 71,000 compounds, 1.8% hits; AID 585; active = falling curve, for most hits resting on a single point; inconclusive = weak or doubtful change; inactive = flat or rising curve; further: % of control where 0% means no effect; about half of the hits show no inhibition at the top dose; a quarter of the inactives give rising signals
# Target sequence (P00811 whole entry, looked up): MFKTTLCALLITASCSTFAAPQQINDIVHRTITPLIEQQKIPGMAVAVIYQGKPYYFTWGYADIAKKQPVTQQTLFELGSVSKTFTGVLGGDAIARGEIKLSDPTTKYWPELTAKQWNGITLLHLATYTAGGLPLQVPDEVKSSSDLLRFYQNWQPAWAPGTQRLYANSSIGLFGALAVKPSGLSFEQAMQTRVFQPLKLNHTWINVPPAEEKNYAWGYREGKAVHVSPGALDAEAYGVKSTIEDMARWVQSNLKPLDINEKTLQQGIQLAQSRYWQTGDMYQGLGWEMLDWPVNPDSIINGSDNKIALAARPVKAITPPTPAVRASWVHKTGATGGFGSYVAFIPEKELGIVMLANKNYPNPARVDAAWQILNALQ
#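 AmpC in 20 mM phosphate buffer pH 7.0 was preincubated 15 min at room temperature with compounds. Nitrocefin (800 uM stock) was then added and hydrolysis followed at 480 nm every 20 s for 4 min.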
# Numbers without * were called inactive; u = inconclusive; [ ] = dose if it differs, or a comment. Potency means the concentration at half of the fitted maximal effect. An excerpt; count on the stated rates, not on these rows.
Structure,AmpC nodet inh
O=c1oc2c3c4c(cc2c2c1CCC2)OCCN4CCC3,84%
N#Cc1ccc(CSc2nnc(Nc3ccccc3)s2)cc1,-19%
CC(C)NC(=O)N1CCCC2(CCN(C(=O)c3cc(C(F)(F)F)cc(C(F)(F)F)c3)CC2)C1,-16%
CN(C)P(=NC(=S)c1cccn1C)(N(C)C)N(C)C,18%
CC1(C)C(=O)Nc2ccccc2N1C(=O)COc1ccc(S(=O)(=O)N2CCOCC2)cc1Cl,42%
COc1ccc(Nc2ccccc2)c(C)c1,-13%
CCC(=O)N1c2ccc(S(=O)(=O)N(CCO)Cc3ccccc3)cc2CC1C (centres undefined),49%
C#CCNc1c(C)c(C)nc2ncnn12,-2%
COc1ccc(C(c2sc3nc(C)nn3c2O)N2CC(C)OC(C)C2)cc1OC (centres undefined),7%
C[N+](C)(C)CC(=O)N/N=C\c1ccncc1,-7%[5.75 µM]
COc1cccc(C(=O)CN2C(=O)C(C)(C)Oc3ccc(C(=O)N4CCCCCC4)cc32)c1,109%
Clc1ccccc1OCc1nc(-c2ccccn2)no1,-2%

# (next part)
Structure,AmpC nodet inh
CC(C)c1nnc(NC(=O)C2CCCCC2)s1,5%
COC(=O)c1ccc2c(=O)n(CCN3CCOCC3)c(SCC(=O)c3ccccc3)nc2c1,54%
COc1ccc2[nH]cc(CCNc3ncnc4ccc(-c5ccccc5CN(C)C)cc34)c2c1,58%
CCC(c1nnc(SCC(=O)N2CC(=O)Nc3ccccc32)n1Cc1ccccc1)N(C)C (centres undefined),28%
COc1ccc(-c2nc(=S)[nH][nH]2)cc1,-6%
CCc1cccc(CC)c1NC(=O)CN1CCN(c2ccccc2)CC1,92%
Cc1cc(N2CCOCC2)nc2ccc(NC(=O)CCC(=O)N3CCCC(C)C3)cc12 (centres undefined),110%
O=C(CC1=NC2(CCCC2)Cc2ccccc21)N1CCOCC1,91%
COc1ccc2[nH]cc(CCNc3ncnc4ccc(-c5ccccc5C#N)cc34)c2c1,21%
COc1cccc(Cn2c(=O)cnc3cncnc32)c1,2%
CCOc1ccc(OCC)c(NC(=O)CCn2c(=O)oc3ccccc32)c1,28%
COCCn1c(SCC(=O)N2CCCCC2)nc2cccnc21,8%

# New compounds follow:
Structure,AmpC nodet inh
CC(C)COC(=O)C1[C@H]2C(=O)N(Cc3cccs3)C[C@]23C=C[C@H]1O3 (some centres undefined),-4%
Cc1ccc(CCNC(=O)Cn2cccc2)cc1,5%
CCn1cc(S(=O)(=O)CC(=O)Nc2cc(C)on2)c2ccccc21,-2%
Cc1ccc(NC(=O)CSC(N)=O)cc1Cl,13µM*
Cn1c(CCNC(=O)c2ccccc2)nc2cc(NC(=O)c3ccco3)ccc21,-3%
CN1CCN(Cc2nc3c(c(=O)[nH]c(=O)n3C)n2CCc2ccccc2)CC1,9%
O=C(CSc1ccccc1)NCCCN1CCOCC1,-11%
COCCn1c(=O)[nH]c2cc(C(=O)NCc3cccnc3)ccc2c1=O,-14%
O=C(CSc1nnc(-c2ccc(Br)o2)n1Cc1ccccc1)c1ccccc1F,12%
CCOC(=O)CSc1nnc(-c2ccco2)n1-c1ccccc1,10%
COc1cccc(-n2c(Cc3cc(=O)[nH]c(=O)[nH]3)nnc2SCC(=O)NC2CCCCC2)c1,u
COc1ccc(OC)c(-c2nnc(-c3ccc(C)o3)o2)c1,44%

# The results go on.
Structure,AmpC nodet inh
Cc1nc(C)c(C(=O)Nc2ccccc2-c2ccccc2)o1,21%
O=C(Cn1c(=O)oc2cc(S(=O)(=O)N3CCCC3)ccc21)NCc1ccccn1,4µM*[single pt active]
Cc1ccc2cc(CCNC(=O)CC(C)(C)C)c(=O)[nH]c2c1C,9%
CCOc1ccccc1NC(=O)CCN1CCN(S(=O)(=O)c2ccc(OC)cc2)CC1,90%
CC1(C)CCC(NC(=O)[C@H](N)CCC(=O)O)CC1,7%
CCOC(=O)Cn1nnnc1C(CC)N(Cc1cc2ccc(C)cc2[nH]c1=O)C1CCCC1 (centres undefined),53%
CC(C)Cc1nc(S(=O)(=O)c2ccc(Cl)cc2)c(N2CCOCC2)o1,-6%
CC(C)OCCCNc1ncnc2c1[nH]c1ccc(F)cc12,-8%
COc1ccc(C2N(c3ccccn3)C(=O)C3CCCN32)c(OC)c1 (centres undefined),9%
CCOC(=O)N1CCC(NC(=O)c2ccc(CS(=O)(=O)c3ccccc3C)o2)CC1,4µM*[single pt active]
CCOC(=O)c1sc(NC(=O)c2cccc(S(=O)(=O)N3CCN(C)CC3)c2)cc1C,147%
Cc1n[nH]c(=O)nc1N1CCN(c2ccccc2)CC1,2%

# (continued)
Structure,AmpC nodet inh
O=C(O)C[C@H](Nc1ccccc1)C(=O)O,2%[5.75 µM]
c1ccc2[nH]c(NCCCN3CCOCC3)nc2c1,-3%
Cc1ccccc1NC(=O)Cc1nnc(SCC(=O)N2CCN(c3ccccc3)CC2)n1C,80%
COc1ccc(OC)c2[nH]c(=O)c(CCNC(=O)c3ccc(S(=O)(=O)N4CCCC4)cc3)cc12,149%
CCOC(=O)Cn1c(=O)oc2cc(S(=O)(=O)Nc3ccc(F)cc3)ccc21,-17%
COC(=O)C1CCN(S(=O)(=O)Cc2ccccc2)CC1,-13%
CN(C)S(=O)(=O)c1ccc(Nc2ccc(O)c3c2C(=O)c2c([N+](=O)[O-])ccc(O)c2C3=O)cc1,1%[5.75 µM]
Cc1ccc(-n2c(=O)[nH]cc(C(=O)Nc3ccc4c(c3)OCCO4)c2=O)cc1C,83%
Cc1cc(C)n(-c2nc3c(c(=O)n(Cc4ccc(Cl)c(Cl)c4)c(=O)n3C)n2C)n1,-3%
O=C(CN(C(=O)CCC(=O)Nc1nccs1)c1ccccc1F)NCC1CCCO1 (centres undefined),-4%
Cc1ccc(P(=Nc2ccccc2)(N2CCOCC2)N2CCOCC2)o1,-6%
CC1CCN(c2ccc(C(=O)NCc3cccs3)cn2)CC1,5%

# (next part)
Structure,AmpC nodet inh
COC(=O)c1oc2ccc(Br)cc2c1-n1cccc1,3%
CCOc1ccc(-c2nc(-c3ccccc3)no2)cc1OCC,9%
Cc1cc(C)n2cc(CSc3nc4cc(Cl)ccc4o3)nc2n1,115%
CC(C)(C)/C(O)=C(/C#N)c1nc2ccccc2[nH]1,-11%
Cc1ccc(S(=O)(=O)NCC(=O)OC2CCOC2=O)cc1 (centres undefined),1%
CC(C)N(Cc1ccccc1)C(=O)COC(=O)c1ccc2c(c1)OCCO2,43%
CC1CN(c2oc(COc3ccc(Cl)cc3Cl)nc2C#N)CC(C)O1 (centres undefined),50%
COC(=O)c1ccc2c(=O)n(CCN3CCOCC3)c(=S)[nH]c2c1,-9%
COc1ccc(-c2ccc(SCC(=O)N3CCCC3)nn2)cc1OC,32%
O=C1CC(c2ccc3c(c2)OCO3)CN1 (centres undefined),-5%
c1ccc2sc(SCc3ccc(-c4nnco4)cc3)nc2c1,52%
O=C1NC2(CCCCC2)Cc2ccccc21,6%

# Gathered by group: the entries above containing a cyano group (4)
Structure,AmpC nodet inh
N#Cc1ccc(CSc2nnc(Nc3ccccc3)s2)cc1,-19%
COc1ccc2[nH]cc(CCNc3ncnc4ccc(-c5ccccc5C#N)cc34)c2c1,21%
CC(C)(C)/C(O)=C(/C#N)c1nc2ccccc2[nH]1,-11%
CC1CN(c2oc(COc3ccc(Cl)cc3Cl)nc2C#N)CC(C)O1 (centres undefined),50%

# Later entries
Structure,AmpC nodet inh
O=C(CCN1c2ccccc2Sc2ccccc21)OCC(=O)N1CCN(C(=O)c2ccco2)CC1,134%
Cc1ccc(C2C=C(c3ccc4c(c3)OCO4)Nc3ncnn32)cc1 (centres undefined),17%
O=C(Nc1ccc2c(c1)OCO2)C(c1ccc(Cl)cc1)N1CCC2(CC1)OCCO2 (centres undefined),62%
COc1ccc(N2CCN(C(=O)CSc3ccccc3N)CC2)cc1,40%
CCCN1Cc2cccc(C(=O)NCCCOC(C)C)c2C1=O,15%
COc1ccc(C(=O)N2CCC3(CCCN(c4ccccc4)C3)CC2)cc1,112%
Cc1ccc(N2C(=O)[C@@H]3C(c4ccc(F)cc4)=NO[C@@H]3C2=O)cc1,-12%
CCOC(=O)c1nnn(-c2nonc2N)c1CSc1ccccn1,16%
COCCn1c(=O)c(-c2cc(F)cc(F)c2)nc2cnc(Oc3cccc(Cl)c3)nc21,5%
CCOCCN1CCN(c2c3c(nc4cc(-c5ccc(F)cc5)nn24)CCC3)CC1,132%
CC(=O)N1CC=CC1(CC(C)C)C(=O)O (centres undefined),-11%
Cc1nc2cnc(N(C)C)nc2n(C)c1=O,22%

# The list goes on.
Structure,AmpC nodet inh
COC(=O)Sc1nnc(-c2ccc(Br)cc2)o1,-17%
CCN1CCN(c2cc(C)c3cc(NC(=O)c4cncc(Br)c4)ccc3n2)CC1,112%
O=C(Cn1cnc2sc3c(c2c1=O)CCCC3)NCCC(=O)N1CCC2(CC1)OCCO2,48%
COCCN(CCOC)c1ncc(Cl)c(C(=O)c2c(C)cc3ccccn23)n1,89%
Cc1nn(C)c(C)c1S(=O)(=O)N1CCC(C(=O)NC2CCCCCC2)CC1,29%
CCN1CCN(Cc2cc(=O)oc3cc4c(cc23)CCC4)CC1,2%
COc1ccc(CCNC(=O)c2nnn(-c3ccc4c(c3)OCCO4)c2N)cc1OC,54%
COc1ccc(CNC(=O)CSc2nnnn2-c2ccccc2)cc1,-8%
CCOC(=O)c1c(C#N)c(SCC(=O)Nc2ccc(OC)cc2)nc2c1CN(CC)CC2,90%
COCCNC(=O)CN(CC1CCCO1)C(=O)CCC(=O)Nc1ccccn1 (centres undefined),-5%
CCOc1cccc(-c2nnc3sc(COc4ccc(OC)cc4)nn23)c1,36%
COc1ccc(-n2c(=O)c3c4c(sc3n3c(C)nnc23)COC(C(C)C)C4)cc1 (centres undefined),84%

# Among those listed so far, 2 have a tert-butyl group.
Structure,AmpC nodet inh
Cc1ccc2cc(CCNC(=O)CC(C)(C)C)c(=O)[nH]c2c1C,9%
CC(C)(C)/C(O)=C(/C#N)c1nc2ccccc2[nH]1,-11%

# (further entries)
Structure,AmpC nodet inh
O=C1CCCC2=C1C(c1ccccc1)C1=C(CCCC1=O)O2,13%
COc1ccc2[nH]cc(CCNc3ccnc(-c4cccc(NS(C)(=O)=O)c4)n3)c2c1,-2%
CCSc1nnc(NC(=O)CCNS(=O)(=O)c2cc(Br)cnc2N)s1,-6%
C=CCCC#N,-5%
CN(C)C(=O)N1CCCC(C(=O)NCc2ccccc2)C1 (centres undefined),3%
CCS(=O)(=O)N1CCN(C(=O)c2ccc(-c3ccccc3)cc2)CC1,73%
COc1ccc(S(=O)(=O)NCc2ccc(C(=O)N3CCN(c4ccccn4)CC3)cc2)cc1,42%
CCOC(=O)C1=C(c2ccccc2)NC(SCC(=O)Nc2cccc(C)c2)=C(C#N)C1c1ccco1 (centres undefined),-25%
CN(c1ccccc1C(=O)NCc1ccccn1)S(C)(=O)=O,-2%
Cc1ccc2c(c1)-c1c(cnn1CC(=O)NC(C)CCc1ccco1)CO2 (centres undefined),76%
COc1ccc(NC2=CC(=O)CC(C)(C)C2)cc1OC,15%
Cc1cc(C)nc(SC2CCOC2=O)n1 (centres undefined),-10%

# Remaining list, next part
Structure,AmpC nodet inh
CC(Cc1c[nH]c2ccccc12)NC(=O)C1CCCNC1=O (centres undefined),-4%
O=C(O)CCN1C(=O)NC2(CCCC2)C1=O,-11%
O=S(=O)(O)c1ccc2c(N=Nc3c(O)ccc4ccccc34)cccc2c1,34%[5.75 µM]
COc1ccc(CC(=O)Nc2cc(C)c3c(=O)oc4ccccc4c3n2)cc1,15%
O=c1c2c3c(sc2ncn1/N=C/c1ccc(Br)o1)CCCC3,9%
CCn1[nH]c(=O)c(=Nc2c(C)n(C)n(-c3ccccc3)c2=O)cc1-c1ccc(Cl)cc1,130%
Cn1c(=O)n(C/C=C/c2ccccc2)c(=O)c2c1nc1n2CCCN1Cc1ccccc1,31%
O=C(CCc1nc(-c2ccccc2)no1)N1CCCC1,-8%
COc1ccccc1N(C)S(=O)(=O)c1ccc(C(=O)NC2=NCCS2)cc1,-6%
Nn1c(SCc2nc3ccccn3c2Br)nnc1-c1cccnc1,-16%
Cc1[nH]c2c(Cl)cccc2c(=O)c1CN1CCCC1,-2%
CCCS(=O)(=O)NCCc1cc2cc(C)c(C)cc2[nH]c1=O,20%

# (continued)
Structure,AmpC nodet inh
CC1CCc2nc(NC(=O)CSc3nc4ccccc4o3)sc2C1 (centres undefined),2%
CCOc1ccccc1Nc1nnc(Cc2ccccc2Cl)c(=O)[nH]1,-22%
CCOC(=O)C1CCCN(C2CC(=O)N(c3cccc(C)c3)C2=O)C1 (centres undefined),13%
Cc1nn2cc(-c3ccc(-c4ccccc4)cc3)nc2s1,13µM*
Cc1noc(C)c1CSc1nnc2sc3ccccc3n12,-14%
Cc1ccc(S(=O)(=O)Cn2nnnc2CN(Cc2ccco2)CC2CCCO2)cc1 (centres undefined),51%
C/C(=C\C(=O)c1ccc(C)o1)Nc1ccc(C(=O)O)cc1C,-11%
CC(=O)NCC(=O)N[C@H](CCC(=O)O)C(=O)O,-2%
Cc1nc(NCc2ccccc2)c2nc(-c3ccccc3)n(CCCN3CCOCC3)c2n1,151%
CN1C(=O)C2ON(c3ccccc3)C(c3cccs3)C2C1=O (centres undefined),1%
NCCc1ccc(O)c(O)c1,-14%
COc1ccc(NC(=O)NCCN2C(=O)C3C4C=CC(C4)C3C2=O)cc1 (centres undefined),2.5µM*[single pt active]
C=CCn1c(SCC(=O)N2CCCC2)nc2cc(C(=O)NCC3CCCO3)ccc2c1=O (centres undefined),42%
